NPYLR7 ag: mosquito NPYLR7 agonism; HEK293T NPYLR7/Galpha15, GCaMP6s calcium fluorescence; activation, % at 10 µM; 0.15% of 270,000 active; AID 1259423; in the data active = activation above about 40%;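 note: 0% = vehicle and 100% = reference agonist at the receptor; some compounds past the cut are filed as inactive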
NPYLR7 ag max-min: recorded beside NPYLR7 ag, whose call it bears; activation, %; measured here: Max-Min RFU normalised activation; some inactives read as strong as hits;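 span of the calcium signal over five minutes; 0% = vehicle and 100% = native peptide agonist; compound fluorescence can raise it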
* hit, by the source's call; & = joins results of further samples. This is a subset. The share of hits here may be higher or lower than overall.

SMILES,NPYLR7 ag,NPYLR7 ag max-min
COc1cccc(NC(=O)CSc2nc3c(cnn3CCO)c(=O)[nH]2)c1,2,0
Brc1ccc(-c2noc(-c3ccccn3)n2)o1,0,-3
Cc1cn(-c2ccccc2)nc1NC(=O)N1CCC2CCC(C1)N2C (centres undefined),2&-6,-1&-6
Cn1c(=O)n(CC(=O)OCc2ccccc2)c(=O)c2c1nc1n2CCCN1c1ccccc1,3,3
O=C(O)c1cnn(-c2ccc(F)cc2)c1-c1ccccc1,-4,-13
O=S(=O)(/C=C/c1ccc(Cl)cc1)Nc1cc(N2CCCS2(=O)=O)ccc1O,-7,-7
CCn1cccc(-c2nnc(SCC(=O)Nc3nc4ccccc4s3)n2C)c1=O,0,-1
COc1nc(-c2ccccc2C)n(-c2ccc(NC(=O)c3ccccc3Br)cc2)n1,4,19
COc1ccccc1C(C)Nc1ncnc2ccsc12 (centres undefined),4,3
O=C(C1CC1)N(CCn1cccn1)c1nc2c(Cl)cccc2s1,-22,-22

Among those listed so far, these contain a Cl atom.
SMILES,NPYLR7 ag,NPYLR7 ag max-min
O=S(=O)(/C=C/c1ccc(Cl)cc1)Nc1cc(N2CCCS2(=O)=O)ccc1O,-7,-7
O=C(C1CC1)N(CCn1cccn1)c1nc2c(Cl)cccc2s1,-22,-22

Next part
SMILES,NPYLR7 ag,NPYLR7 ag max-min
CCOCCn1c(C(C)O)nc2ccccc21 (centres undefined),7,3
CCn1c(C2CCCN(C/C(C)=C/c3ccco3)C2)nn(C)c1=O (centres undefined),5,5
O=C1NCCCCC1Sc1nc2ccccc2c(=O)n1C1CC1 (centres undefined),0,0
O=C(N[C@@H]1c2ccccc2C2(CCNCC2)[C@H]1O)c1ccc(Cl)s1,5,3
CN1C[C@@H]2CC[C@H](CC1=O)N2C(=O)c1ccc2cccnc2n1,-1,-3
CCCCc1ccc(CC(=O)NNC(=O)c2nn(CCC)c(=O)c3ccccc23)cc1,3,-3
Cn1nc(NC(=O)c2cnccn2)c2c1NC(=O)CC2c1cccs1 (centres undefined),-12,-19
O=C(Nc1cc(C(F)(F)F)cc(C(F)(F)F)c1)N1CCCN(c2nc(Cc3ccccc3)ns2)CC1,-9,-13
Cc1cc(C(=O)N2CCc3onc(-c4ccc(F)c(F)c4)c3C2)n(C)n1,3,2
Cc1ccccc1Cn1c(C)c(C(=O)NC2CC2)sc1=O,-5,-6
CC1=NC2=C(C(=O)CC(c3ccc(Cl)cc3)C2)C(c2ccccc2Br)C1C#N (centres undefined),-13,-17
COc1ccc(CN(C)S(=O)(=O)c2ccc(F)c(C(=O)O)c2)cc1OC,9,6
c1ccc(COC2CCN(Cc3nc(-c4ccccn4)no3)CC2)nc1,-3,-5
c1ccc(-c2ccc(C(c3ccccc3)n3ccnc3)cc2)cc1 (centres undefined),-8&-5,-12&-16
Cc1cc(F)ccc1NCc1ccccn1,-1,-2
FC(F)(F)Oc1ccc(CNc2nccnc2-c2cccc(C(F)(F)F)c2)cc1,21,4
O=C1NC(=Nc2ccccc2)S/C1=C\c1ccc(-c2cccc(Cl)c2Cl)o1,-8,-12
Cc1ccc(Cc2cnc(NC(=O)C3CCCO3)s2)cc1Cl (centres undefined),4,2
CC(C)(C)C1(C)OC(C(N)=O)C(C(N)=O)O1 (centres undefined),-2,-16
CCn1nc(C(=O)Nc2cccc(F)c2F)ccc1=O,6,1
CCOC(=O)C(Cc1ccc(Cl)cc1)NC(=O)C1CC=CCC1C(=O)N1CCN(c2ccc(OC)cc2)CC1 (centres undefined),-7,-15
O=C(Cn1cnc2ccccc2c1=O)Nc1ccc(F)cc1,-7,8
O=C(Nc1ccccn1)Nc1c[nH]c2ccccc12,2,-5
O=C(CN1CCN(CC(=O)NC2CCCCC2)CC1)NC1CCCCC1,17,19
CCNC(=O)C1CCN(C(=O)CCSCc2ccc(F)cc2)C1 (centres undefined),5,2
COc1ccc(Cc2nc(CSCc3cccs3)cs2)cc1,4,-1
N#Cc1c(SCc2ccccc2)nc2c(c1C1CC=CCC1)CCC2 (centres undefined),1,0
Cc1ccc(S(=O)(=O)N2CCN(CC3(O)CCC3)CC2)c(C)c1,0,0
Cc1ccc(NC(=O)N2CCSC23C(=O)N(Cc2cccc(C#N)c2)c2ccc(Cl)cc23)cc1C (centres undefined),11,10
Cc1cccc(Cn2c(N3CCN(Cc4ccccc4C)CC3)nc3c2c(=O)[nH]c(=O)n3C)c1,-2,-2
Cc1cccc(C2=N/C(=C\c3ccc(F)cc3)C(=O)O2)c1,-2,-4
CC(=O)Nc1cccc(-c2ccnc3c2CC(C(=O)NCc2cccs2)O3)c1 (centres undefined),1,1
O=C(Nc1noc2ncccc12)C12CC3CC(CC(C3)C1)C2,-1,-1
CC(C)C(=O)NCCc1nc2ccccc2n1CCc1ccccc1,2,-5
COCC(=O)N1CCCN(C/C(C)=C/c2ccccc2)CC1,2,1
O=C(NC1=NC2=C(CCCC2)C2(CCCCC2)S1)c1ccc2c(c1)OCO2,7,7
COC(=O)C(CC(C)C)NC(=O)CSc1nc2ccccc2s1 (centres undefined),14,20
CCOC(=O)C(C)n1cnc2c(nnn2-c2ccc(OC)c(OC)c2)c1=O (centres undefined),-2,-10
CSCCCNc1ccccc1COCC(O)CN(C)C1CCCCC1 (centres undefined),3,-1
CCOc1cccc2cc(C(N)=O)c(=Nc3ccccc3)oc12,1,-6

Part of the list above, with values under each structure:
Each structure is followed by: NPYLR7 ag | NPYLR7 ag max-min
- c1ccc(COC2CCN(Cc3nc(-c4ccccn4)no3)CC2)nc1
    -3 | -5
- c1ccc(-c2ccc(C(c3ccccc3)n3ccnc3)cc2)cc1 (centres undefined)
    -8&-5 | -12&-16
- Cc1cc(F)ccc1NCc1ccccn1
    -1 | -2

Part of the list above in another layout.
O=C(NC1=NC2=C(CCCC2)C2(CCCCC2)S1)c1ccc2c(c1)OCO2
  NPYLR7 ag: 7
  NPYLR7 ag max-min: 7
COC(=O)C(CC(C)C)NC(=O)CSc1nc2ccccc2s1 (centres undefined)
  NPYLR7 ag: 14
  NPYLR7 ag max-min: 20
CCOC(=O)C(C)n1cnc2c(nnn2-c2ccc(OC)c(OC)c2)c1=O (centres undefined)
  NPYLR7 ag: -2
  NPYLR7 ag max-min: -10
CSCCCNc1ccccc1COCC(O)CN(C)C1CCCCC1 (centres undefined)
  NPYLR7 ag: 3
  NPYLR7 ag max-min: -1

Next entries follow:
SMILES,NPYLR7 ag,NPYLR7 ag max-min
CCOC(=O)c1cc(-c2ccc(N3CCN(C(=O)c4ccc(OC)cc4OC)CC3)cc2)n(-c2ccccn2)n1,23,12
Cc1nn(-c2ccccc2[N+](=O)[O-])c(C)c1[C@@H]1C=C[C@@H](NC(=O)CC(C)(C)CC(=O)O)C1,-3,-12
Cc1cnc(CN(CC(C)C)c2cccc(O)c2)cn1,1&-2,-1&-4
CCc1nc2ccc(C(=O)N(C)CCN(C)C)cn2c1N(C)Cc1ccc(N(C)C)cc1,-14,-17
O=C(Nc1cc(-c2ccccc2)nn1-c1cccc(F)c1)c1ccc(F)c(C(F)(F)F)c1,19,9
COCCN1CCN(c2nc(C(=O)N3CCCCC3)cs2)C1=O,-1,-1
COc1cccc(-c2nc3c(N4CCOCC4)nccc3[nH]2)c1F,-6,-10
O=c1cc(-c2cc3ccccc3o2)oc2ccc(Br)cc12,10,9
CC(C)Cc1cc(C(=O)N[C@@H]2c3ccccc3C[C@@H]2O)n(C)n1,7,3
CCC(C)NC(=O)c1cc(NC(=O)CCc2ccccc2)ccc1N1CCN(c2ccccc2OC)CC1 (centres undefined),-5,0
NC(=O)c1ccc(N2CCN(Cc3cccc4nsnc34)CC2)nc1,1,-5
COc1cc(-c2nc3ccccn3c2NC2CCCCC2)ccc1OC(=O)c1ccc(C)c([N+](=O)[O-])c1,0,5
Cn1cc(C(=O)N2CCN(S(=O)(=O)c3ccc(F)cc3F)CC2)c2ccccc21,2,12
CN(Cc1nc(C(c2ccccc2)c2ccccc2)no1)C1CCOCC1,8,7
CC(C)CN(CC(=O)N1CCc2sccc2C1c1ccc(Cl)cc1Cl)C(=O)N(C)C (centres undefined),16,22
C=CCN1C(=O)C2(CC(=O)N(Cc3ccc(OC)c(OC)c3)C2=O)c2cc(Cl)ccc21 (centres undefined),9,-7
CN1CCCN(C(=O)[C@H]2C[C@@](C)(C(=O)O)N(C)[C@H]2c2ccccc2Cl)CC1,7,0
Cn1ccc(NC(=O)CN2CCC(N3CCCC(C(=O)N4CCCC4)C3)CC2)n1 (centres undefined),6,4
CCc1noc(CN(CC)C(=O)c2cn(Cc3ccc(F)cc3)nn2)n1,5,4
O=C(c1ccc(F)cc1)N1CCCC(OCc2ccc(OC(F)(F)F)cc2)C1 (centres undefined),-4,1
Cc1ccc[n+](C2=C(c3c(C)[nH]n(-c4cccc(Cl)c4)c3=O)C(=O)N(C3CCCCC3)C2=O)c1,-5,2
CC(C)CC(O)C(=O)NCc1ccc2sccc2c1 (centres undefined),3,1
CC(C)c1ccccc1OCc1nc(CN(CCN2CCCCC2)C(=O)c2ccc(Cl)cc2)cs1,-8,5
Cc1nc(-c2ccncc2)ncc1C(C)NC(=O)Nc1cccc(F)c1 (centres undefined),21,4
COCCCNc1nc2nonc2nc1NCCCSC,0,1
O=C(Cn1cccc(-c2nc(-c3ccc(Cl)cc3)no2)c1=O)NCc1ccco1,-3,-6
CC(Oc1ccccc1F)C(=O)NCCCn1nc(-c2ccccc2)ccc1=O (centres undefined),-3,-5
N#Cc1cc2ccccc2oc1=O,10,13
O=c1c(C2=NCCCCCC2)c(NC2=NCCCCCC2)[nH]n1-c1ccccc1,5,4
COCCCOc1ccnc(CS(=O)c2nc3ccccc3[nH]2)c1C (centres undefined),-2,-7
Cc1ccc2c(c1)c(CNC(=O)c1coc(COc3ccccc3)n1)nn2C,-14,-14
Nc1cc(-c2ccc(Cl)cc2)nn1-c1ccc(C(=O)NCCc2ccc(F)cc2)cc1,-2,-4
CC(C)C(O)C1CCN(C(=O)Nc2nncs2)CC1 (centres undefined),16,9
O=c1[nH]cc(NCc2ccccc2)c(=O)[nH]1,16,13
COC(=O)c1ccc(C(=O)N2CCN(CC(OCc3cccc(OC)c3)c3ccc(Cl)cc3)CC2)cc1 (centres undefined),5,2
Cc1nc(N2CCCC(C(=O)N3CCOCC3)C2)c2c3c(sc2n1)CCC3 (centres undefined),-2,2
C=CCn1c(SCC(=O)N2CCN(c3ccccc3)CC2)nc2c([nH]c3ccccc32)c1=O,2,1
COc1ncc(-c2cc(NCCN(C)C)nc3[nH]ccc23)c(OC)n1,8,5
CCOc1ccccc1N1C(=O)CSC1c1ccc(NC(=O)c2ccc(Cl)c([N+](=O)[O-])c2)cc1 (centres undefined),3,12
NC(=O)[C@H](Cc1ccccc1)n1cc2ncccc2c1O,2,0
CC1(C(=O)NS(=O)(=O)c2ccccc2Cl)CCN1C(=O)CCc1cccs1 (centres undefined),-5,-11
CCSc1nnc(CNC(=O)C23CC4CC(CC(C4)C2)C3)n1Cc1ccccc1,-3,-8
CCOCCNC(=O)c1ccc(-c2cc(-c3ccc(Cl)cc3Cl)[nH]n2)cc1,5,-1
Cc1ccc(C)c(NC(=O)CCNC(=O)c2cnn3cc(C)cnc23)c1,0,-11
Cc1ccccc1C(=O)N1CCN(c2cccc(F)c2)C(=O)C1C (centres undefined),-1,0
Cc1cc(C)cc(-c2nn(CN3CCOCC3(C)C)c(=S)o2)c1,-1,15
CC(Cc1cccc(F)c1)C(=O)NCC(C)(C)c1ccccc1F (centres undefined),-1,2
C=CCCC(O)(CCC=C)c1ccc(CN(Cc2ccc(C)s2)C(C)C)o1,-8,-1
O=C(NOC[C@H](O)CO)c1ccc(F)c(F)c1Nc1ccc(I)cc1F,-3,-8
COc1cc(CC(=O)N2CCC3(CC2)OCc2cc(Cl)ccc2O3)cc(OC)c1OC,12,0

Going on with the list.
SMILES,NPYLR7 ag,NPYLR7 ag max-min
CCc1nc2c(OCc3ccccc3)cccn2c1N(C)C(=O)CC(C)C,1,5
O=S(=O)(NC1CCN(S(=O)(=O)c2cc(C(F)(F)F)ccc2Cl)CC1)c1ccccc1,10,6
CC1Cn2c(nnc2-c2ccc(F)cc2)S1 (centres undefined),-5,-7
CC1=C(C(=O)Nc2ccccc2)C(c2ccc(Br)cc2)N2C(=O)CSC2=N1 (centres undefined),-1,2
Cc1cc(C(=O)N2CCOC(COc3cccc(C(F)(F)F)c3)C2)cc(Cl)n1 (centres undefined),-4,-8
COc1ccc(C(CC(=O)N2CCC(n3c(=O)[nH]c4ccccc43)CC2)c2c[nH]c3ccccc23)c(OC)c1 (centres undefined),21,27
CCC(C)NC(=O)Cn1cnc2scc(-c3ccccc3)c2c1=O (centres undefined),-6,-9
CCOC(=O)C(C#N)C(C#N)(C(=O)OCC)C1CCCCC1=O (centres undefined),-6,-6
Cc1nc2c(c(=O)[nH]1)CCN(C(=O)c1n[nH]c3c1CC(C)CC3)C2 (centres undefined),5,3
COc1cc(OC)cc(OC(C)C(=O)Nc2ccc(F)cc2F)c1 (centres undefined),-7,-8
O=S(=O)(Nc1cccc(S(=O)(=O)N2CCCC2)c1)c1ccc(Br)cc1,2,2
CCOC(=O)CNC(=O)N(CC(=O)N(Cc1ccccc1)Cc1sccc1C)C(C)CC (centres undefined),15,18
CC(O)CNC(=O)C(=O)NCC1CCCO1 (centres undefined),1,8
CCOC(=O)c1cc(=O)n(-c2ccc([N+](=O)[O-])cc2)[nH]1,3,3
CCOC(=O)C1CCN(C(c2ccncc2)c2c(O)cc(C)n(Cc3ccccc3)c2=O)CC1 (centres undefined),6,3

Bioassay records as filed in PubChem.
